NPR1 antag – antagonists of human natriuretic peptide receptor Npr1; P16066; Potency, µM (titrated, usually from 46.3 µM), for the others: at the top dose activity change, negative = inhibition, usual class: inhibitors; 76,000 compounds, 1.6% hits; HEK293 hNpr1 GloSensor cGMP, ANP-stimulated luminescence; AID 1347048; active = well fitted inhibition curve with a large enough effect; inconclusive = small, poorly fitted or top-dose-only effect; inactive = no such curve, though single readings can be large or run the other way;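 note: nearly all actives have a fitted effect of over 60% in size; nearly all hits also lower the signal before the agonist is added; a reference antagonist and vehicle were the controls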
Target sequence (P16066 whole entry, looked up): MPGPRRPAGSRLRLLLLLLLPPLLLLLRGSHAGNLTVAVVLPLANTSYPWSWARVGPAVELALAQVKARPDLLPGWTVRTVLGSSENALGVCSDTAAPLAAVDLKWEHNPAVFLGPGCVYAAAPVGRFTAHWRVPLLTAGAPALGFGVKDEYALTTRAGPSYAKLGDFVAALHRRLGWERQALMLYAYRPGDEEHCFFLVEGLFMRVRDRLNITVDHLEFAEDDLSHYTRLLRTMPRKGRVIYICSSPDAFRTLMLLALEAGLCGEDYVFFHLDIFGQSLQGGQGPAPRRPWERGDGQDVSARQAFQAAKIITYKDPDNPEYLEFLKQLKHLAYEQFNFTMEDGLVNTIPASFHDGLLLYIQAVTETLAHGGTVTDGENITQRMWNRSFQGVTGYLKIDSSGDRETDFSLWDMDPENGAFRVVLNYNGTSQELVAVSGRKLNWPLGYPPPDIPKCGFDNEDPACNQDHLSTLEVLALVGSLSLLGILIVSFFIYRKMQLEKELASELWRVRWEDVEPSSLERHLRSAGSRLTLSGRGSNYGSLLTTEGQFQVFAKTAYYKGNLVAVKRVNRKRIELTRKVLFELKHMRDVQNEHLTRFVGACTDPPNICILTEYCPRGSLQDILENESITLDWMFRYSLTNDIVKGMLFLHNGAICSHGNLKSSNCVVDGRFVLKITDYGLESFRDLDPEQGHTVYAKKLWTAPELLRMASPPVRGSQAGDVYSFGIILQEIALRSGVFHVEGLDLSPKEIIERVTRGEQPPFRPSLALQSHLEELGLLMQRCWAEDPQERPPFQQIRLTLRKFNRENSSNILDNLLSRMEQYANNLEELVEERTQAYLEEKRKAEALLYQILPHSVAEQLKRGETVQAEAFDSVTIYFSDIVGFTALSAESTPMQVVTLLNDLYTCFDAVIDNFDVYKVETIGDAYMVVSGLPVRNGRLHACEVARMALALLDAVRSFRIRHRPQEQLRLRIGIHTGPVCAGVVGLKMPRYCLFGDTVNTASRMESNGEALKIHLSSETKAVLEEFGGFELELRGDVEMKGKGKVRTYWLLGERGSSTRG
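HEK293 cells stably expressing human Npr1 and cGMP GloSensor pGS-40F, loaded 2 h with 2% GloSensor reagent, given compound 30 min at room temperature. Luminescence read before and 20 min after 0.1 nM hNppA.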
Starred values were filed as active, the others as inactive; ? = inconclusive; [ ] = dose if it differs, or a comment. % is set by controls: 0 for no effect and ±100 for the full control effect; potency is the fitted concentration of half-maximal effect. This is a subset, so the mix of outcomes need not match the whole.

structure	NPR1 antag
CCN1c2cc(C(=O)Nc3cc(OC)c(OC)c(OC)c3)ccc2C(=O)N2CCCC21 (stereo unspecified)	0.0%
O=C(C[C@@H]1CCNC[C@@H]1Cc1cc(CN2CCOCC2)on1)N1CCN(c2ccc(F)cc2)CC1	-6.8%
C[S+](=O)([O-])NC1CCN(C(=O)N2CC3CC(C2)[C@H]2CCCC(=O)N2C3)CC1 (stereo partly specified)	-4.1%
CN(Cc1cccnc1)C(=O)C1CCN(C(=O)N2CC3CC(C2)[C@H]2CCCC(=O)N2C3)CC1 (stereo partly specified)	2.4%
O=C(Nc1cccnc1)[C@@H]1C[C@@H](c2ccc(F)cc2)N([S+](=O)([O-])c2ccccc2)C1	4.5%[70.6 µM]
COCCN1CCC(N2CCN(C(=O)C3CCOCC3)CC2)C1=O (stereo unspecified)	5.3%
O=C(c1ccc2c(c1)OCO2)N1CCC(n2cc(-c3nc(-c4ccccc4)no3)nn2)CC1	?
O=C(c1ccc(C(F)(F)F)cc1)N1CCN2C(=O)N(Cc3ccc(F)cc3)C[C@H]2C1	-1.5%[70.6 µM]
CN1CCN(C(=O)C(C)(C)Oc2nn(Cc3cccc(Cl)c3)c3ccccc23)CC1	15.8µM*
CCn1cc(-c2ccc(Cl)cc2)cc1C(=O)NCCCN1CCCC1=O	-12.2%
CO[C@H]1[C@H](NC(=O)Cc2ccccc2C)c2ccccc2C12CCNCC2	0.7%
COC(=O)c1ccc2nc(CO[C@H]3CN(Cc4ccc5ccccc5n4)C[C@H]3F)[nH]c2c1	1.4%[70.6 µM]
COc1cc(CNC(=O)CN2CC3CC(C2)[C@H]2CCCC(=O)N2C3)cc(OC)c1 (stereo partly specified)	5.2%
COc1ccc(C(=O)N2CCN(C3CCN(C)C3=O)CC2)cc1 (stereo unspecified)	-2.4%
CC[C@H]1CN(C(=O)Nc2cccc(C(F)(F)F)c2)CC[C@H]1CC(=O)NC1CC1	6.8%[70.6 µM]
CN(C(=O)CN1C(=O)NC2(CCS(=O)(=O)CC2)C1=O)c1ccccc1	7.9%
CC(C(=O)N1CCC(c2cc(Cc3ccccc3)[nH]n2)CC1)N1CCCC1=O (stereo unspecified)	-1.7%
COc1cccc(CN2CCOC3(CCN(Cc4ccc(F)cc4F)CC3)C2=O)c1	-24.7%[70.6 µM]
COc1ccc(CNC(=O)N2CCC(c3noc(-c4ccccn4)n3)C2)cc1 (stereo unspecified)	2.2%
Fc1ccc(-c2cnc([C@@H]3COCCN3Cc3cccnc3)[nH]2)c(F)c1	-10.9%[70.6 µM]

A different layout for part of the listing above.
NPR1 antag	structure
-10.9%[70.6 µM]	Fc1ccc(-c2cnc([C@@H]3COCCN3Cc3cccnc3)[nH]2)c(F)c1
4.5%[70.6 µM]	O=C(Nc1cccnc1)[C@@H]1C[C@@H](c2ccc(F)cc2)N([S+](=O)([O-])c2ccccc2)C1
-1.7%	CC(C(=O)N1CCC(c2cc(Cc3ccccc3)[nH]n2)CC1)N1CCCC1=O (stereo unspecified)
-4.1%	C[S+](=O)([O-])NC1CCN(C(=O)N2CC3CC(C2)[C@H]2CCCC(=O)N2C3)CC1 (stereo partly specified)

(continued)
structure	NPR1 antag
c1coc(-c2nc3nccc(-c4ccc5c(c4)OCCCO5)n3n2)c1	?
CCCc1noc(-c2ccn3c(CNC(=O)c4ccccn4)nnc3c2)n1	4.4%
O=C(C1CC1)N1CCCC(c2nn(-c3ccc(F)cc3)c(=O)[nH]2)C1 (stereo unspecified)	0.0%[70.6 µM]
O=c1[nH]c(C2CCCN(Cc3cccc4ccccc34)C2)nn1-c1ccccc1 (stereo unspecified)	23.1%
CN1CCCN(S(=O)(=O)c2cccs2)c2ccccc21	-10.4%
O=C(Nc1ccc([C@@H](O)[C@H]2COCC(=O)N2Cc2ccccc2F)cc1)c1cccc(F)c1	-17.1%
COCCNC(=O)C[C@@H]1C[C@H]2O[C@H](CNCc3ccncc3F)[C@@H](O)[C@H]2O1	2.7%[70.6 µM]
Cc1ccc(C(=O)N2CCCn3cc(-c4ccccc4F)nc32)cn1	2.8%
O=C1[C@@H]2C[C@@H](CN2C2CCC2)Oc2ccccc2N1Cc1ccc(OC(F)(F)F)cc1	-29.1%[70.6 µM]
COC[C@@H]1CN(Cc2cc(Cl)ccc2F)C[C@H]1C(N)=O	6.3%
Cc1ccc(-c2cn3c(n2)N(C(=O)c2nc4ncccn4n2)CCC3)cc1	5.4%
CNC(=O)[C@@H]1CN(C(=O)c2c[nH]c3ccccc23)C[C@H]1COC	1.7%
O=C(Cn1ccn2nc(-c3ccc(F)cc3)c(CO)c2c1=O)NCCc1ccccc1	1.0%
COc1ccc(C2Cn3nnc(-c4noc(-c5ccc(C)c(F)c5)n4)c3CO2)cc1 (stereo unspecified)	0.0%
Cc1n[nH]c(C)c1CNc1cc(C2CC(O)C2)ncn1 (stereo unspecified)	3.5%
COc1cccc(N2CCN(C(=O)C3CC(=O)N(c4n[nH]c5cccc(F)c45)C3)CC2)c1 (stereo unspecified)	2.4%
COc1cccc(CNc2ncncc2-c2nc(-c3ccccc3)no2)c1	-3.5%
CCOc1ccccc1C1NC(=O)N(CC(=O)Nc2cccc(Cl)c2)C2=C1C(=O)OC2 (stereo unspecified)	-21.7%
O=C(c1cccnc1)N1CCOCC2(C1)CN([S+](=O)([O-])c1ccccc1)C2	-0.9%[70.6 µM]
CC(C)c1nc2c(c(-c3ccc(O)cc3)n1)CCN(C(=O)c1ccccc1Cl)CC2	-0.2%
O=C1COCC2(CN1Cc1ccccc1)CN(c1ccccc1)C2	-20.5%[70.6 µM]
Cn1nccc1C(O)c1cc2n(n1)CCN(c1ncc(Cl)cn1)C2 (stereo unspecified)	0.5%
CC1Oc2ccc(NC(=O)C3CC3)cc2CN(CCc2ccc(F)cc2)C1=O (stereo unspecified)	0.4%
Cn1ccc2c(C(=O)NCCC(N)=O)nc(-c3cccc(C(F)(F)F)c3)cc21	3.4%[70.6 µM]
O=C(NCc1ccc(F)cc1)Nc1cccc(-c2ccc(N3CCOCC3)nn2)c1	?
COc1ccc(-c2cc(-c3ccncc3)c3cncn3c2)cc1OC	0.6%[70.6 µM]
O=C(NC[C@H]1O[C@@H](CO)[C@@H](O)[C@H]1N1CCN(c2ccccn2)CC1)Nc1ccccc1	-1.4%
COc1ccc(OCc2cc(C(=O)NCCc3nc(C)c(C)s3)no2)c(Cl)c1	0.0%
COc1ccccc1CCC(=O)N1CCC[C@H]1c1nc(-c2ccc(OC)c(OC)c2)no1	-2.7%
Cc1cc(NC(=O)N(C)CC2CCOC2)ccc1Br (stereo unspecified)	2.7%
CC(=O)Nc1ccc(CN2CCOC[C@H]2c2ncc(-c3ccc(Cl)cc3)[nH]2)cc1	0.8%[70.6 µM]
O=C(NC1CCCN(c2cc(-c3ccc(F)cc3)[nH]n2)C1)c1ccoc1 (stereo unspecified)	-2.8%
COc1cc(OC)cc(-c2nc3ccc(-c4ccc(OC)c(OC)c4OC)cc3o2)c1	-13.3%
O=C(CCc1c[nH]c2ccccc12)Nc1cccc(-c2nnc3n2CCCC3)c1	-15.1%
CN(C)C[C@H]1C[C@@H](CO)CN(C(=O)CCc2ccncc2)C1	3.8%
CCOCC(=O)N1CCC(N2C[C@H](O)C[C@H]2C(=O)NCc2cccc(OC)c2)CC1	1.8%
COc1ccc(-c2nc3c(C)cccc3cc2CN(C)Cc2ncc[nH]2)cc1OC	-11.6%
CCN1C(=O)CCC2(C(=O)NCCN3CCOCC3)CCCC=C12 (stereo unspecified)	-9.0%
COc1ccc(CN2CCC(N3CCCCCC3=O)CC2)cc1	-0.6%[70.6 µM]
CCOc1ccc(C2Cn3nnc(-c4nc(-c5ccccc5OC)no4)c3CO2)cc1 (stereo unspecified)	-1.4%
O=C(c1ccoc1)N1CCC(c2n[nH]c(=O)n2Cc2ccc(F)cc2)CC1	-0.2%
O=C(NCc1ccco1)c1ccc(-c2ccc(N3CCCCCC3)nc2)cc1	-20.2%
CN(C)C[C@@H]1CN(S(C)(=O)=O)C[C@H]1NC(=O)CC1CCN(C)CC1	2.6%
O=C(NCc1cc(F)cc(F)c1)C1CCN(C(=O)N2CC3CC(C2)[C@H]2CCCC(=O)N2C3)CC1 (stereo partly specified)	-0.6%
Cc1ccccc1[C@@H]1CN(C(=O)CN(C)C2CCN(C)CC2)C[C@H]1C(=O)O	12.3%
O=C(Nc1ccc2c(c1)OCCO2)N1CCCC(Cc2noc(-c3ccncc3)n2)C1 (stereo unspecified)	3.4%
O=C(Cc1ccccc1Cl)NCc1nnc2cc(-c3nc(C4CC4)no3)ccn12	4.6%
COc1ccc(-c2cc(N3CCC(NC(=O)Cc4ccccc4)CC3)n[nH]2)cc1	0.7%
COc1ccc(C(C)NC(=O)COc2ccc(NC(=O)C3CC3)cn2)cc1 (stereo unspecified)	5.0%
COc1ccc([C@H]2C[C@@H](O)[C@@H](O)[C@@H]2NC(=O)C(C)C)cc1	5.9%[70.6 µM]

More entries.
structure	NPR1 antag
O=C(C1CC=CC1)N1CCN(C(=O)N2CC3CC(C2)[C@H]2CCCC(=O)N2C3)CC1 (stereo partly specified)	0.4%
Cc1ccc(NC(=O)CC2CCOCC2)cc1C	0.4%
Cc1nn(-c2ccc(C(C)(C)C)cc2)c(C)c1[C@@H]1C=C[C@@H](NC(=O)CC2(CC(=O)O)CCCC2)C1	-0.1%
COCCn1ncc(N2CCC(C(=O)NCC(C)C)C2)cc1=O (stereo unspecified)	11.9%
CS(=O)(=O)N1C[C@H]2CCN(C(=O)Cc3c[nH]c4ccccc34)C[C@H]21	6.0%
Cn1cc2c3c(cccc31)CN(C(=O)c1ccccc1Br)CC2	-14.4%
Cc1ccc(NC(=O)N[C@H]2C[C@@H](c3nc(-c4ccc5c(c4)OCO5)no3)N(C)C2)cc1	-14.1%[70.6 µM]
COc1cccc(CC(=O)Nc2ccc3c(c2)CN(Cc2cccc(OC)c2)C(=O)C(C)O3)c1 (stereo unspecified)	?
CN(C)c1ncc2c(n1)C(C)(C(=O)Nc1ccccc1)CCC2 (stereo unspecified)	-1.1%[70.6 µM]
O=C(c1cn(-c2ccccc2)nn1)N1CCCCCC1c1ccco1 (stereo unspecified)	-0.7%
CN(C)CC1(O)CCC2(CCN(C(=O)c3nccc4ccccc34)CC2)CC1	4.4%
CCc1ccccc1-n1nc(-c2c(C)nc3scc(CC(=O)NCCOC)n3c2=O)cc1C	2.3%
Cc1ccsc1C(=O)NC1CCN(C(=O)N2CC3CC(C2)[C@H]2CCCC(=O)N2C3)CC1 (stereo partly specified)	3.0%
COCCNC(=O)[C@@H]1C[C@@H](O)CN1C1CCN(C(=O)C(C)C)CC1	0.8%
COc1ccc(C(=O)NCCC2CCN(C(=O)Nc3ccccc3)CC2)cc1OC	2.6%
CCn1nccc1C(=O)N1C[C@@H](F)C[C@H]1C(=O)N1CCCCC1	-0.9%
O=C(NC[C@H]1OC[C@@H](NC2CCC2)[C@@H]1O)C1CCCC1	-1.1%[70.6 µM]
CS(=O)(=O)N1CCCN(C(=O)NC2CCCCC2)CCNC(=O)CC1c1ccccc1 (stereo unspecified)	4.5%
Cn1cc(CN[C@H]2C[C@H]3C(=O)NC[C@@H](CCC(=O)N4CCc5ccccc54)N3C2)c2ccccc21	-0.8%
O=C(NCc1ccccc1C(F)(F)F)c1cc2c(s1)CCN(C(=O)c1ccccc1)C2	-24.3%
CCCNC(=O)CCc1ccc2c(c1)CN(C(=O)NCC)CCO2	2.3%
Cc1ccc(CNC(=O)Cn2c(N(C)Cc3ccccc3)nc(C)cc2=O)cc1	-15.1%
O=C(NC1CCCN(c2cc(N3CCCC3)ncn2)C1)c1ccoc1 (stereo unspecified)	0.2%
COC1C(=O)N(c2cccc(F)c2)C12CCN(S(=O)(=O)c1cccs1)CC2 (stereo unspecified)	-1.4%
CC(C)c1nncn1C1CCN(S(=O)(=O)c2ccc(F)cc2)CC1	-0.5%
Cc1[nH]nc(CN2CCC3(CCN(C4CCCC4)CC3)C(CO)C2)c1Cl (stereo unspecified)	-1.6%
Cc1nn(C)c2ncnc(N3CCCC(Cc4nc5ccccc5[nH]4)C3)c12 (stereo unspecified)	-2.1%
COc1cccc(CN2CCOC3CCN(Cc4ccccc4O)CC3C2=O)c1 (stereo unspecified)	-3.7%[70.6 µM]
O=c1[nH]c(C2CCN(Cc3ccccc3)CC2)nn1Cc1ccccc1	0.0%
Cc1ccc(CCCN2CCCC(COc3ccccc3C(=O)N3CCCCC3)C2)o1 (stereo unspecified)	-10.9%
COc1ccc(C2Cn3nnc(C(=O)NC4CCCCCC4)c3CO2)cc1 (stereo unspecified)	?
CCN1CCC(CCNC(=O)CCC[C@H]2NC[C@@H]3CC2CN(Cc2ccccc2)C3)CC1	-3.3%
Cc1cc(F)ccc1NC(=O)CCC1CCCN(C(=O)c2ccc(Cl)s2)C1 (stereo unspecified)	-23.0%
COc1ccc(S(=O)(=O)N2CC(Oc3ccccc3-c3noc(C)n3)C2)cc1	-17.4%
CC(C)C(=O)N1CCC2(CC1)N(C)C(=O)CS2(=O)=O	2.9%
Cc1ccc(N2C(=S)N[C@H]3[C@@H](O)[C@H](O)C[C@@H](C(=O)N4CCCCC4)[C@H]32)cc1	3.2%[70.6 µM]
Cn1nccc1OCc1cn2c(=O)n(C)cc(-c3cccc(C(F)(F)F)c3)c2n1	-1.2%[70.6 µM]

Compound activity (PubChem BioAssay)
